High-throughput results from PubChem BioAssay.
Vaccinia Venus – vaccinia inhibition (Venus reporter). Vaccinia virus Venus reporter expression, fluorescence. Potency, µM (highest dose often 36.5 µM), for the others: at the highest dose activity change, negative = inhibition, hits mostly inhibitors. hit rate 0.46% among 330,000. AID 720580; active means well fitted inhibition curve with a large enough effect; inconclusive means small, poorly fitted or top-dose-only effect; inactive means no such curve, though single readings can be large or run the other way; tested in A549 cells; further: nearly all actives have a fitted effect of over 30% in size; inactives centre near -10
VACV mCherry inh – vaccinia inhibition (mCherry reporter) | hit rate 0.63% among 310,000 | Potency, µM (doses to about 36.5 µM), without a hit: at the highest dose activity change, negative = inhibition, hits mostly inhibitors | AID 720579 | Vaccinia virus mCherry reporter infection, fluorescence; about a quarter of the inactives have no number; active = well fitted inhibition curve with a large enough effect; inconclusive = small, poorly fitted or top-dose-only effect; inactive = no such curve, though single readings can be large or run the other way; tested in A549 cells; further: nearly all actives have a fitted effect of over 35% in size; inactives centre near -10
The depositor's hits bear a star; i = inactive; ? = inconclusive; / = no result given; [ ] = dose if it differs, or a comment. On the % scale 0 is the no-effect control and ±100 the full control effect; potency means the concentration at half of the fitted maximal effect.

1: COc1cccc(/C=C/C(=O)OCC(=O)c2c(N)n(C)c(=O)n(C)c2=O)c1
2: CCCN(Cc1cc2ccccc2[nH]c1=O)C(=O)c1cccc([N+](=O)[O-])c1
3: Cc1c(C(=O)NCC(C)C)sc2nc(-c3ccc(F)cc3)cn12
4: CCCCN1CC(=O)N2[C@H]3c4ccccc4OC[C@@H]3[C@H](c3ccccc3)[C@]2(C)C1=O
5: COc1ccc(CC(=O)NC(=S)Nc2ccc(S(=O)(=O)NC(C)(C)C)cc2)cc1
6: CCOc1ccc(S(=O)(=O)Nc2cc(F)ccc2F)c2cccnc12
7: CCc1ccc(N2CC(C(=O)N(CC)CC(=O)Nc3c(F)cccc3F)CC2=O)cc1 (centres undefined)
8: CC(C)(C)NC(=O)NC(=O)COC(=O)C1CC(=O)N(Cc2ccccc2)C1 (centres undefined)
compound no. | 1 | 2 | 3 | 4 | 5 | 6 | 7 | 8
Vaccinia Venus | -18% | 0% | -7% | -17% | -24% | -13% | -11% | 0%
VACV mCherry inh | -15% | 12% | -11% | -8% | / | -3% | -5% | -12%

9: O=C(COC(=O)Cc1ccc(S(=O)(=O)N2CCOCC2)s1)NCc1ccccc1
10: Cc1ccc(CNS(=O)(=O)c2ccc(CN3C(=O)c4cccnc4C3=O)cc2)o1
11: CC(C)(O)/C=C/C(=O)C(C)(O)C1C(O)CC2(C)C3CC=C4C(C=C(O)C(=O)C4(C)C)C3(C)C(=O)CC12C (centres undefined)
12: COc1cc(/C=C/c2ccc(/C=C/c3cc(OC)c(OC)c(OC)c3)cc2)cc(OC)c1OC
13: COc1ccccc1CNC(=O)CCn1c(=O)c2ccccc2n(CC(=O)Nc2ccc(C)cc2Cl)c1=O
14: COc1ccccc1CC(=O)Nc1ccc2c(c1)OC1(CCCC1)O2
15: CCc1ccc(NC(=O)Cn2ccn(-c3ccc(OC)cc3)c(=O)c2=O)cc1
16: COc1ccc(-c2nnc(SCC(=O)Nc3cccc(C)c3)s2)cc1
compound no. | 9 | 10 | 11 | 12 | 13 | 14 | 15 | 16
Vaccinia Venus | 2% | -18% | 28µM* | ? | -18% | -16% | -4% | -7%
VACV mCherry inh | / | i | 7.9µM* | ? | -25% | ? | -16% | 4%

17: O=C(O)CCC(=O)N1CCc2cc(S(=O)(=O)NC3CCCC3)ccc21
18: Cc1nc(N2CCN(C(=O)c3ccco3)CC2)nc2c1C(=O)CCC2
19: C#CCOCCOCCOCCNc1nc(N2CCOCC2)nc(N2CCN(C(=O)[C@H](CCCCN)n3cc(CCC(=O)O)nn3)CC2)n1
20: CC(=O)N=c1scc(-c2ccccc2)n1-c1cccc(O)c1
21: CCCCN(CC)CCNC(=O)c1nn(C)c2c1CS(=O)(=O)c1ccccc1-2
22: Cc1ccc(-c2cc(-c3ccco3)c(C#N)c(=O)[nH]2)cc1
23: CCC(=O)Nc1cccc(NC(=O)COc2ccc(OC)cc2)c1
24: CCC(NS(=O)(=O)c1cnn(CC)c1)c1ccccc1 (centres undefined)
compound no. | 17 | 18 | 19 | 20 | 21 | 22 | 23 | 24
Vaccinia Venus | 0% | -12% | 4% | ? | -7% | -13% | 24% | 6%
VACV mCherry inh | i | -15% | i | -23% | -14% | -12% | 18% | 3%

25: CCCCCCn1c(=O)n2n(c1=O)C[C@]1(OC(=O)Nc3cccs3)CN(S(=O)(=O)c3ccc(C)cc3)C[C@]1(O)C2
26: Cc1cc(C(c2cc(C)c(N)c(C)c2)c2ccco2)cc(C)c1N
27: NC(=O)[C@@H]1CCCNc2c(I)cc([N+](=O)[O-])cc2C(=O)N[C@@H](CO)C(=O)N[C@@H](Cc2ccc(O)cc2)C(=O)N1
28: Nc1nc(CSc2nnnn2-c2ccccc2)nc(Nc2ccccc2)n1
29: COc1ccc(Cl)cc1NC(=O)CCCn1c(C)c2cnn(-c3ccccc3)c(=O)c2c1C
30: CCOC(=O)c1c(NC(=O)CSc2ccccc2C(=O)O)sc(C)c1C
31: Cc1cc(C)c2c(CC(=O)NN(C)C)coc2c1
32: O=C(C=CC(=O)Nc1ccc(F)cc1F)Nc1ccc(F)cc1F
compound no. | 25 | 26 | 27 | 28 | 29 | 30 | 31 | 32
Vaccinia Venus | -25% | 1% | -5% | 4% | -9% | -7% | -16% | 5%
VACV mCherry inh | -19% | -11% | i | 48%[activator] | -1% | -8% | -6% | 7%

By substructure: the entries above with a halogen
3: Cc1c(C(=O)NCC(C)C)sc2nc(-c3ccc(F)cc3)cn12
6: CCOc1ccc(S(=O)(=O)Nc2cc(F)ccc2F)c2cccnc12
7: CCc1ccc(N2CC(C(=O)N(CC)CC(=O)Nc3c(F)cccc3F)CC2=O)cc1 (centres undefined)
13: COc1ccccc1CNC(=O)CCn1c(=O)c2ccccc2n(CC(=O)Nc2ccc(C)cc2Cl)c1=O
27: NC(=O)[C@@H]1CCCNc2c(I)cc([N+](=O)[O-])cc2C(=O)N[C@@H](CO)C(=O)N[C@@H](Cc2ccc(O)cc2)C(=O)N1
29: COc1ccc(Cl)cc1NC(=O)CCCn1c(C)c2cnn(-c3ccccc3)c(=O)c2c1C
32: O=C(C=CC(=O)Nc1ccc(F)cc1F)Nc1ccc(F)cc1F
compound no. | 3 | 6 | 7 | 13 | 27 | 29 | 32
Vaccinia Venus | -7% | -13% | -11% | -18% | -5% | -9% | 5%
VACV mCherry inh | -11% | -3% | -5% | -25% | i | -1% | 7%

(further entries)
33: O=C(N/N=C/c1ccc(O)cc1)NC12CC3CC(CC(C3)C1)C2
34: O=C1NC(=O)C2C3c4ccccc4C(c4ccccc43)C12 (centres undefined)
35: Cc1c(Cl)cccc1NC(=O)N1CCCN(c2nc(-c3ccccc3)ns2)CC1
36: CCC(C(=O)N1CCc2ccccc2C1)n1nc(C)n2c(cc3occc32)c1=O (centres undefined)
37: CC(NC(=O)COC(=O)CN1C(=O)c2ccccc2C1=O)c1ccccc1 (centres undefined)
38: COc1ccc(Cc2nc3ccc(C(=O)NCCn4cccn4)cc3o2)cc1
39: O=C(Cn1cnc2c(nnn2-c2ccccc2)c1=O)N1CCC(Cc2ccccc2)CC1
40: FC(F)(F)c1cccc(OCCN2CCN(Cc3ccccc3)CC2)c1
compound no. | 33 | 34 | 35 | 36 | 37 | 38 | 39 | 40
Vaccinia Venus | -30% | 3% | -3% | -22% | -9% | -18% | -5% | -9%
VACV mCherry inh | -30% | -14% | -28% | / | i | i | 16% | -1%

41: COc1ccc(-c2nnc3n2CCCCC3)cc1
42: O=c1c2ccccc2nnn1CSc1ncnc2ccccc12
43: CCCN(CC1CC1)S(=O)(=O)c1ccc(S(N)(=O)=O)cc1
44: CC(=O)c1ccc(N2CCN(Cc3nc4ccccc4[nH]3)CC2)cc1
45: CCC1=C(c2cc(OC)c(OC)c(OC)c2)C2(CCCC2)C(=O)O1
46: O=C(COC(=O)CCCSc1nc2ccccc2[nH]1)NC(=O)NC1CCCC1
47: Cc1ccc(NC(=O)Cn2c(=O)n(CCCCC(=O)NCc3ccc4c(c3)OCO4)c(=O)c3ccccc32)cc1
48: CCn1nc(C)c(CCN(C)C(=O)Nc2cccc(Cl)c2C)c1C
compound no. | 41 | 42 | 43 | 44 | 45 | 46 | 47 | 48
Vaccinia Venus | -8% | ? | -12% | 2% | -9% | -17% | -5% | -4%
VACV mCherry inh | 27% | / | -15% | -5% | i | -6% | -12% | i

49: CSc1ncc(C(=O)N2CCN(c3ccc(F)cc3)CC2)c(C)n1
50: COc1ccc(C)cc1NC(=O)C(=O)c1cn(CC(=O)N2CCCC2)c2ccccc12
51: CCOc1ccccc1NC(=O)n1ncc2c(C)cccc21
52: O=C(CSc1nnc(-c2ccccc2F)o1)Nc1ccccc1Cl
53: CC1(CCc2ccccc2)NC(=O)N(CC(=O)N2CCc3ccccc32)C1=O (centres undefined)
54: COc1cccc(/C=N/NC(=O)c2ccoc2C)c1O
55: Cc1cccc(N(C(=O)c2snc(C(N)=O)c2N)C(C(=O)NC2CCCC2)c2ccco2)c1 (centres undefined)
56: NC(=O)c1ccc(Nc2nc(C(N)COCc3ccccc3)cs2)cc1 (centres undefined)
compound no. | 49 | 50 | 51 | 52 | 53 | 54 | 55 | 56
Vaccinia Venus | -3% | -22% | -7% | -5% | -25% | ? | -3% | -1%
VACV mCherry inh | -7% | -10% | -24% | 7% | -10% | 4.5µM* | -15% | 32%[activator]

57: COc1ccc(CCNC(=O)COc2cc(O)c3c(c2)OC(C)(C)CC3=O)cc1OC
58: CCc1cccc2c(C=C(C#N)C#N)cn(CC(=O)N3CCCCC3)c12
59: CN1CCN(C(=O)Cn2c(-c3cccs3)cc3cc(Cl)ccc32)CC1
60: O=C(NN=C1CCCCCC1)c1ccc(Cl)s1
61: COc1ccc(NC(=O)N(C)C[C@H]2Oc3ccc(NC(=O)CCN4CCOCC4)cc3C(=O)N([C@H](C)CO)C[C@@H]2C)cc1
62: COc1cc(NC(=O)Nn2cnnc2)cc(OC)c1OC
63: Cc1[nH]c2ccccc2c1C1=CN2CCS(=O)(=O)N=C2S1
64: O=C(CSc1nnc(SCc2cccc3ccccc23)s1)c1ccc2c(c1)OCO2
compound no. | 57 | 58 | 59 | 60 | 61 | 62 | 63 | 64
Vaccinia Venus | -1% | -11% | -11% | -26% | 2% | -6% | 11% | -1%
VACV mCherry inh | 2% | -10% | -15% | ? | i | -1% | / | -10%

65: COc1ccc(NC(=O)C(C/C=C(/C)Cl)C(C)=O)cc1 (centres undefined)
66: CCOc1ccc(NC(=O)CC2C(=O)NCCN2C(=O)Nc2ccccc2)cc1 (centres undefined)
67: CN(C)c1ccc(/C=C/c2noc(-c3ccccc3O)n2)cc1
68: CCOC(=O)/C(=N\O)C1=NC(C)(C)Cc2ccccc21
69: O=C(c1cnc(Cl)c(Cl)c1)N1CCC(Cc2ccccc2)CC1
70: Cc1ccc(N(CC(=O)NC2CCCC2)C(=O)CCC(=O)Nc2nccs2)cc1C
71: CN(C)c1ccc(C(=S)N2CCN(c3ccc([N+](=O)[O-])cc3)CC2)cc1
72: C/C(=N\N1CCN(c2ccc(Cl)cc2)CC1)c1cccc([N+](=O)[O-])c1
compound no. | 65 | 66 | 67 | 68 | 69 | 70 | 71 | 72
Vaccinia Venus | -8% | -7% | -2% | -15% | -6% | -7% | -2% | -10%
VACV mCherry inh | -14% | i | -3% | -6% | -7% | -12% | ? | -24%

Profiles from above:
`FC(F)(F)c1cccc(OCCN2CCN(Cc3ccccc3)CC2)c1` across the screens: Vaccinia Venus = -9%; VACV mCherry inh = -1%
`O=C(COC(=O)CCCSc1nc2ccccc2[nH]1)NC(=O)NC1CCCC1` across the screens: Vaccinia Venus = -17%; VACV mCherry inh = -6%
`CC(NC(=O)COC(=O)CN1C(=O)c2ccccc2C1=O)c1ccccc1` (centres undefined) across the screens: Vaccinia Venus = -9%; VACV mCherry inh = i

Further structures follow.
73: CCCCOc1ccc(C(C)NC(=O)CCS(=O)(=O)Cc2ccc(Cl)cc2)cc1 (centres undefined)
74: O=C(CCCc1nc2ccccc2s1)N1CCN(c2ccccc2)CC1
75: Oc1cccc(C=NN=C2c3ccccc3-c3ccccc32)c1
76: CCCCS(=O)(=O)N1CCN(S(=O)(=O)c2cccs2)CC1
77: O=C1CC(=O)N(Cc2ccco2)C(=S)N1
78: CCC(=O)N1CCCc2cc(S(=O)(=O)N3CCC(C(=O)NCc4ccc(F)cc4)CC3)ccc21
79: CC1CN2C(=O)C1(c1ccccc1)C(=O)NC2=S (centres undefined)
80: CCOC(=O)N1CCN(C(=O)c2cc(-c3ccc(F)cc3)[nH]c2C)CC1
compound no. | 73 | 74 | 75 | 76 | 77 | 78 | 79 | 80
Vaccinia Venus | -26% | -10% | -27% | -7% | 19% | -20% | -2% | -16%
VACV mCherry inh | -14% | i | ? | -11% | 7% | -21% | 2% | -15%

Structural class, the entries above with a cyano group
22: Cc1ccc(-c2cc(-c3ccco3)c(C#N)c(=O)[nH]2)cc1
58: CCc1cccc2c(C=C(C#N)C#N)cn(CC(=O)N3CCCCC3)c12
compound no. | 22 | 58
Vaccinia Venus | -13% | -11%
VACV mCherry inh | -12% | -10%

Remaining list, next part.
81: CCOc1ccc(CCNC(=O)COC(=O)COc2ccc(Br)cc2)cc1OCC
82: CCSc1nnc2c(n1)OC(c1cc(OC)c(OC)c(OC)c1)Nc1ccccc1-2 (centres undefined)
83: COc1ccc(-c2noc(CN(C(C)C)S(=O)(=O)c3ccc(Br)cc3)n2)cc1
84: COc1ccccc1C(=O)Nc1nnc(SCC(=O)NC2CCCC2)s1
85: Cc1ccc(S(=O)(=O)NNC(=S)Nc2ccc(Cl)cc2)cc1
86: COc1cc(OC)cc(C2=Cc3ccccc3C(CC(=O)c3ccco3)N2c2ccc(-c3cccnc3)cc2)c1 (centres undefined)
87: COCCCNC(=O)c1c(C)nn(-c2ccc(F)cc2)c1-n1cccc1
compound no. | 81 | 82 | 83 | 84 | 85 | 86 | 87
Vaccinia Venus | 0% | -2% | -13% | -17% | -19% | 2% | 15%
VACV mCherry inh | -11% | -8% | -19% | i | i | -2% | 15%
